UCH37 DUB inh: inhibitors of human deubiquitinating enzyme UCH37 | purified proteasome/UCH37, Ub-AMC cleavage fluorescence | inhibition, % (no concentration beside the values) | 330,000 tested, 0.33% active;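 active means mean of two replicates above 20%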;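 further: 0% = compound-free wells with enzyme and 100% = wells lacking proteasome; stock transfer was 100 nL into about 20 µL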
Target sequence (Q9Y5K5 whole entry, looked up): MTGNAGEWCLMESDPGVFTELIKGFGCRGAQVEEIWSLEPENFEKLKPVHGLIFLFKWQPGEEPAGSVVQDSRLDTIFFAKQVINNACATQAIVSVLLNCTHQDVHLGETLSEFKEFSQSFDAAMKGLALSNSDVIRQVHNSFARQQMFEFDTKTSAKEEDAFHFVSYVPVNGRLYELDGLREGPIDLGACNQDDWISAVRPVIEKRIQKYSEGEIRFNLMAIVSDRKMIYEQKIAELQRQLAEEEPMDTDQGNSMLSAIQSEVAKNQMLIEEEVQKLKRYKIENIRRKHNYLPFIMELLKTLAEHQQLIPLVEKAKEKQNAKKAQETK
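Test system – human UCH37 enzyme supplied as purified proteasome complex · Incubation – 30 min preincubation with enzyme, 25 min cleavage at room temperature · Detection – AMC fluorescence from Ub-AMC cleavage, excitation 355 nm, emission 460 nm · Benchmarks – no-proteasome wells (full inhibition) and compound-free wells (no inhibition)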
A1 inh: inhibitors of the anti-apoptotic protein A1, read as caspase activation; MEF A1-2A-BIM cells, Caspase-Glo 3/7 luminescence, 3 h; percent of clofoctol response, vehicle zero; caspase activation, % (test concentration not listed); 330,000 tested, 0.066% active;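 active means over half of replicate activation scores above 10%, or exactly half above 10 with the replicate mean above 10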;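 further: wells of about 30 µL received 50 nL stock; many hits fall short of the cut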
Beta cell apopt: blocks beta cell apoptosis. 300,000 tested, 0.8% active. INS-1E cytokine-induced death, ATP luminescence, 48 h; percent of positive-control rescue, neutral wells zero. protection from apoptosis, % (no concentration beside the values);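 active means all replicates at 75% or more, or half of them and the mean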;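 further: 0% = cytokine-treated negative control wells and 100% = positive control rescue; higher means more ATP so stronger rescue from cytokine killing; wells of about 40 µL received 100 nL stock; the first replicate is given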
Ecoli growth: inhibitors of Escherichia coli growth; OD600, 23 h; stronger effect = lower value; OD600 absorbance (concentration not given with the values); 330,000 tested, 0.21% active;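 active means OD600 absorbance below the run mean of sample wells minus 3.6 SD, in any replicate, cut at about 0.56 in these data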;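 further: stock transfer was 300 nL into about 60 µL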
* hit, by the source's call; / = no result given. The list is partial (hit frequency here may not be typical).

Assay codes: A = UCH37 DUB inh; B = A1 inh; C = Beta cell apopt; D = Ecoli growth
Cc1ccc(C2C(C#N)=C(N)Oc3c2sc2ccccc32)o1 (centres undefined)
  A: /	B: 0.1	C: -5.1	D: 0.677
O=C(Cn1sc2ccccc2c1=O)NC12CC3CC(CC(C3)C1)C2
  A: /	B: -4.3	C: -7.0	D: 0.705
O=C(CSCc1ccccc1)Nc1cccc(C(=O)Nc2ccc(C(=O)O)cc2)c1
  A: /	B: 0.8	C: 5.1	D: 0.717
O=[N+]([O-])c1ccc(O)c(C=Nn2c(-c3ccccc3)n[nH]c2=S)c1
  A: 11.2	B: /	C: /	D: 0.617
CC(=O)Nc1ccc(S(=O)(=O)N[C@@H](C)C(=O)N2CCN(C/C=C/c3ccccc3)CC2)cc1
  A: 0.5	B: /	C: /	D: 0.654
O=C1CSC(=S)N1N=Cc1ccc(C(F)(F)F)cc1
  A: 2.0	B: /	C: /	D: 0.674
CC(C)N(C(=O)CON=Cc1cccc([N+](=O)[O-])c1)C(C)C
  A: 1.6	B: /	C: /	D: 0.67
O=C(NN=Cc1coc2ccccc2c1=O)c1cc(O)cc(O)c1
  A: -22.5	B: /	C: /	D: 0.636
CCOc1cc(C=NNC(=O)CNc2ccc(C)cc2)ccc1OC(=O)c1ccccc1
  A: 2.8	B: /	C: /	D: 0.686
CNC(=S)NN=Cc1ccc(N(C)C)cc1
  A: -193.9	B: /	C: /	D: 0.674
COc1cccc(C=NNC(=O)c2cc3c(OC)cccc3[nH]2)c1OC
  A: -2.5	B: /	C: /	D: 0.718
Cn1cccc1C=NNC(=O)CNc1ccc2ccccc2c1
  A: 2.6	B: /	C: /	D: 0.711
COc1ccc(OC)c(C=NNC(=O)c2ccc(N(C)S(=O)(=O)c3ccccc3)cc2)c1
  A: -156.0	B: /	C: /	D: 0.727
CCCN=C1CC(C)(C)CC(=O)/C1=C(\O)CCC
  A: 2.2	B: /	C: /	D: 0.689
C/C(C=NNC(=O)c1cccc([N+](=O)[O-])c1)=C\c1ccccc1
  A: 4.2	B: /	C: /	D: 0.724

6 consecutive records from above:
Assay codes: A = UCH37 DUB inh; B = A1 inh; C = Beta cell apopt; D = Ecoli growth
CNC(=S)NN=Cc1ccc(N(C)C)cc1
  A: -193.9	B: /	C: /	D: 0.674
COc1cccc(C=NNC(=O)c2cc3c(OC)cccc3[nH]2)c1OC
  A: -2.5	B: /	C: /	D: 0.718
Cn1cccc1C=NNC(=O)CNc1ccc2ccccc2c1
  A: 2.6	B: /	C: /	D: 0.711
COc1ccc(OC)c(C=NNC(=O)c2ccc(N(C)S(=O)(=O)c3ccccc3)cc2)c1
  A: -156.0	B: /	C: /	D: 0.727
CCCN=C1CC(C)(C)CC(=O)/C1=C(\O)CCC
  A: 2.2	B: /	C: /	D: 0.689
C/C(C=NNC(=O)c1cccc([N+](=O)[O-])c1)=C\c1ccccc1
  A: 4.2	B: /	C: /	D: 0.724

(further entries)
Assay codes: A = UCH37 DUB inh; B = A1 inh; C = Beta cell apopt; D = Ecoli growth
Cc1ccc(C=NNC(=S)N2CCOCC2)cc1
  A: 5.5	B: /	C: /	D: 0.692
Cc1ccc(N(CC(=O)NN=Cc2cccc(Br)c2)S(C)(=O)=O)cc1
  A: 3.8	B: /	C: /	D: 0.705
CC(=NNC(=O)CSCc1ccc([N+](=O)[O-])cc1)c1cccc(Br)c1
  A: 1.6	B: /	C: /	D: 0.721
Cc1cccc(C(=O)Oc2ccccc2C=NNC(=O)c2ccc(NC(=O)C(C)(C)C)cc2)c1
  A: 4.1	B: /	C: /	D: 0.729
O=C(NN=Cc1sc(N2CCOCC2)nc1-c1ccccc1)c1cccc(S(=O)(=O)N2CCCC2)c1
  A: -3.1	B: /	C: /	D: 0.72
COc1cc(C(=O)Oc2ccccc2C=NNC(=O)c2ccc(Cl)cc2)cc(OC)c1OC
  A: -5.6	B: /	C: /	D: 0.675
COc1ccc(CNC(=O)CC(C)=NNC(=O)c2cnccn2)cc1
  A: 1.1	B: /	C: /	D: 0.694
O=C(NN=C1CCc2ccccc21)c1ccncc1
  A: -0.6	B: /	C: /	D: 0.713
O=c1c(C=NNc2ccccc2)c(Sc2nnnn2-c2ccccc2)nc2ccccn12
  A: -0.9	B: /	C: /	D: 0.735
COc1ccccc1CNC(=O)CC(C)=NNC(=O)COc1ccc(C)cc1Br
  A: 4.6	B: /	C: /	D: 0.679
COc1ccc2c(c1)CCC2=NOC(=O)c1ccccc1OC
  A: 0.3	B: /	C: /	D: 0.673
Cc1nn(-c2ccccc2)c(Cl)c1C=NNC(=O)c1ccc(NS(=O)(=O)c2cccs2)cc1
  A: 0.9	B: /	C: /	D: 0.694
CC(=NOCC(=O)Nc1ccc(Br)cc1)c1cccs1
  A: 6.6	B: /	C: /	D: 0.678
S=C(NN=C1CCc2ccccc21)NC1CCCCC1
  A: -0.3	B: /	C: /	D: 0.665
CN(Cc1c(C(=O)NN=Cc2ccc(O)cc2)nnn1-c1nonc1N)C1CCCCC1
  A: 4.6	B: /	C: /	D: 0.727
COc1ccc(-c2oc(N=CN3CCOCC3)c(C#N)c2-c2ccc(OC)cc2)cc1
  A: 3.5	B: /	C: /	D: 0.719
CC(=NNC(=O)c1cc(-c2cccc([N+](=O)[O-])c2)n[nH]1)c1cccc(O)c1
  A: -0.3	B: /	C: /	D: 0.663
O=C(NN=Cc1ccccc1F)C(=O)N1CCCCCC1
  A: 4.2	B: /	C: /	D: 0.652
Cc1ccccc1-c1n[nH]c(=S)n1N=Cc1ccc(-c2ccccc2Br)o1
  A: 3.0	B: /	C: /	D: 0.697
CCN1CCCC1CNC(=O)c1cn(C)c2ccc(S(=O)(=O)N3CCCCCC3)cc2c1=O (centres undefined)
  A: -3.7	B: /	C: /	D: 0.745
Oc1ccc(Br)cc1C=NNc1nc(N2CCCCC2)nc(N2CCOCC2)n1
  A: 3.2	B: /	C: /	D: 0.72
CNC(=S)NN=Cc1cn(Cc2ccc(C)cc2)c2ccccc12
  A: 0.9	B: /	C: /	D: 0.727
O=C(CCNC(=O)c1ccccc1)NN=Cc1ccc([N+](=O)[O-])cc1
  A: 4.5	B: /	C: /	D: 0.694
O=[N+]([O-])c1cc(C=NOCc2c(Cl)cccc2Cl)ccc1N1CCOCC1
  A: 3.3	B: /	C: /	D: 0.77
CCN(CC)c1ccc(C=NNc2ccccc2)c(O)c1
  A: 9.9	B: /	C: /	D: 0.678
COc1ccc(C=NNC(=O)c2ccc(OC)c(OC)c2)cc1COc1c(F)c(F)c(F)c(F)c1F
  A: 4.3	B: /	C: /	D: 0.704
Cc1[nH]n(-c2ccccc2)c(=O)c1C=NNC(=O)c1ccccc1F
  A: 1.4	B: /	C: /	D: 0.635
COc1ccc(C(C)=NNC(=S)NCCc2ccccc2)cc1
  A: 7.4	B: /	C: /	D: 0.721
Cc1cccc(NC(=O)CCC(=O)NN=Cc2ccncc2)c1
  A: 0.0	B: /	C: /	D: 0.679
CC(=NOCC(=O)Nc1c(C)cc(C)cc1C)c1ccc2c(c1)OCCO2
  A: 4.8	B: /	C: /	D: 0.729
Cc1ccc(S(=O)(=O)N(C)N=C/C=C/c2ccccc2)cc1
  A: 1.2	B: /	C: /	D: 0.691
NC(=NO)c1cn(Cc2ccccc2Cl)c2ccccc12
  A: -0.2	B: /	C: /	D: 0.587
CC(C)c1c(C(=O)NN=C2CCc3ccccc32)nnn1-c1nonc1N
  A: -33.0	B: /	C: /	D: 0.711
O=C(NN=Cc1cccnc1)c1cc2ccccc2cc1O
  A: 10.4	B: /	C: /	D: 0.699
Oc1ccc(C=NN2CCCCC2)cc1O
  A: 4.6	B: /	C: /	D: 0.66
NC(=NOC(=O)Cc1ccccc1[N+](=O)[O-])c1cccnc1
  A: 1.5	B: /	C: /	D: 0.731
CCC(=Nc1ccc(Cc2ccncc2)cc1)c1c(O)n(C)c(=O)n(C)c1=O
  A: -0.1	B: /	C: /	D: 0.701
NC(=O)c1ccc(C=NO)nc1
  A: 3.9	B: /	C: /	D: 0.719
CON=C(CS(=O)(=O)Cc1ccccc1Cl)c1ccc(Cl)cc1Cl
  A: 2.2	B: /	C: /	D: 0.712
NC(=NO)c1ccncc1
  A: 1.4	B: /	C: /	D: 0.635
CC(=NNC(=S)NCc1ccccc1)c1ccccc1F
  A: 0.6	B: /	C: /	D: 0.669
O=C1CSC(=S)N1N=Cc1ccc2c(c1)OCCO2
  A: 10.3	B: /	C: /	D: 0.678
COc1cccc(C(=O)NN=c2oc3ccccc3cc2C(N)=O)c1
  A: 9.4	B: /	C: /	D: 0.659
COc1ccc(C(=O)NN=CC(C)c2ccccc2)cc1OC (centres undefined)
  A: 1.0	B: /	C: /	D: 0.721
Cc1ccc(C=c2sc3n(c2=O)CN(c2cccc(Br)c2)CN=3)o1
  A: 0.4	B: /	C: /	D: 0.701
CCCN(CCC)Cc1c(C(=O)NN=Cc2ccco2)nnn1-c1nonc1N
  A: 2.0	B: /	C: /	D: 0.708
Cc1cc(C)c2nc(N=C(N)NC(=O)c3ccccc3)nc(C)c2c1
  A: -7.2	B: /	C: /	D: 0.726
Cc1cc(C(=O)NN=C2CCCc3ccccc32)c(C)o1
  A: 4.4	B: /	C: /	D: 0.72
O=C(NN=Cc1ccc(Cl)c([N+](=O)[O-])c1)C1CC1
  A: 3.3	B: /	C: /	D: 0.614
COC(=O)NN=Cc1cn(CCOc2ccccc2OC)c2ccccc12
  A: 0.6	B: /	C: /	D: 0.676
COc1ccc(C(C)=NNc2nc(-c3ccccc3)cc(=O)[nH]2)cc1
  A: -139.8	B: /	C: /	D: 0.679
O=C(CCC(=O)Nc1ccccc1)NN=Cc1ccncc1
  A: 3.6	B: /	C: /	D: 0.685
Cc1ccc(N2CC(C(=O)NN=Cc3sccc3C)CC2=O)cc1 (centres undefined)
  A: 4.8	B: /	C: /	D: 0.673
COc1cc(C=NN(C)C2=NS(=O)(=O)c3ccccc32)cc(OC)c1OC
  A: -40.0	B: /	C: /	D: 0.711
Cc1nnc(NN=Cc2ccc(-c3ccccc3F)o2)n1N
  A: 4.2	B: /	C: /	D: 0.601
CC1(c2ccc(OC(F)F)cc2)NC(=O)N(N=Cc2c(O)ccc3ccccc23)C1=O (centres undefined)
  A: 1.5	B: /	C: /	D: 0.733
NC(Cc1nc(-c2ccc(Br)cc2)cs1)=NO
  A: 6.0	B: /	C: /	D: 0.652
O=C(CCCO)NN=Cc1ccccc1[N+](=O)[O-]
  A: 3.0	B: /	C: /	D: 0.69
COc1ccc(NN=C(C(C)=O)N2CCCc3ccccc32)cc1
  A: 3.3	B: /	C: /	D: 0.691
O=c1[nH]nc(NN=Cc2ccccc2OC(F)F)c(=O)[nH]1
  A: 11.3	B: /	C: /	D: 0.72

Later entries.
Assay codes: A = UCH37 DUB inh; B = A1 inh; C = Beta cell apopt; D = Ecoli growth
COc1ccc(C=NNC(=O)c2cc[n+]([O-])cc2)cc1O
  A: 15.9	B: /	C: /	D: 0.652
COc1cccc(NC(=O)CC(C)=NNC(=O)C2CCCCC2)c1
  A: 2.2	B: /	C: /	D: 0.667
O=C(/C=C/c1ccco1)NCC(=O)NN=Cc1ccc(Cl)cc1
  A: 4.2	B: /	C: /	D: 0.681
COc1ccc(C=NNC(=O)c2cccc(OC(F)(F)C(F)F)c2)cc1O
  A: 2.2	B: /	C: /	D: 0.705
Cn1nc(C(F)(F)F)c(C=NOC(=O)c2ccccc2Cl)c1SCc1ccccc1Cl
  A: 0.3	B: /	C: /	D: 0.674
Cn1cc(C(=O)NN=Cc2cc(Br)cs2)c2ccccc21
  A: 7.8	B: /	C: /	D: 0.696
CN(C)C=Nc1sc2c(c1C#N)CC(C)(C)NC2(C)C
  A: 10.3	B: /	C: /	D: 0.691
Cc1cc(C(=O)NN=Cc2ccccc2)c(C)o1
  A: 1.7	B: /	C: /	D: 0.697
O=C1N/C(=N\N=Cc2ccc3ncccc3c2)SC1Cc1ccc(SC(F)F)cc1 (centres undefined)
  A: 6.4	B: /	C: /	D: 0.728
CCN(CC)c1ccc(C=NNC(=O)CNC(=O)c2cccnc2)cc1
  A: -96.4	B: /	C: /	D: 0.635
O=C(O)c1cccc(NC(=S)NN=Cc2ccccc2OCc2cccc(Br)c2)c1
  A: 4.4	B: /	C: /	D: 0.703
CCCOc1ccc(CCC(=O)NN=Cc2ccc([N+](=O)[O-])o2)cc1
  A: 6.9	B: /	C: /	D: 0.59
CC(=NNC(=S)NCCc1ccccc1)c1cccs1
  A: 2.3	B: /	C: /	D: 0.659
Cc1ccc(OCC(=O)NN=C2SCC(=O)N2Cc2ccccc2)cc1
  A: 2.6	B: /	C: /	D: 0.692
C=CCSC(N)=NN=Cc1cc(Br)cc([N+](=O)[O-])c1O
  A: 6.3	B: /	C: /	D: 0.639
Cc1cc(C(=O)NN=Cc2ccc(-c3cccc([N+](=O)[O-])c3)o2)n[nH]1
  A: 6.8	B: /	C: /	D: 0.626
O=C(CNC(=O)c1ccc(S(=O)(=O)N2CCCC2)cc1)NN=Cc1ccc(F)cc1
  A: 3.1	B: /	C: /	D: 0.725

Bioassay records deposited in PubChem by several laboratories.
